Vaccinia mCherry = qHTS for Stage-Specific Inhibitors of Vaccinia Orthopoxvirus: mCherry Reporter Primary qHTS; AID 720579, 2013; actives 0.63% (n = 310,000); Potency, µM (top dose mostly 36.5 µM), for the others: at the highest dose activity change, negative = inhibition, most hits filed as inhibitors; Vaccinia virus mCherry reporter infection, fluorescence; about a quarter of the inactives have no number; active = well fitted inhibition curve with a large enough effect; inconclusive = small, poorly fitted or top-dose-only effect; inactive = no such curve, though single readings can be large or run the other way; tested in A549 cells; also: nearly all actives have a fitted effect of over 35% in size; inactives centre near -10
VACV Venus inh = qHTS for Stage-Specific Inhibitors of Vaccinia Orthopoxvirus: Venus Reporter Primary qHTS; Potency, µM (titrated, usually from 36.5 µM), inactives show top-dose activity change, negative = inhibition, usual class: inhibitors; AID 720580, 2013; actives 0.46% (n = 330,000); Vaccinia virus Venus reporter expression, fluorescence; active means well fitted inhibition curve with a large enough effect; inconclusive means small, poorly fitted or top-dose-only effect; inactive means no such curve, though single readings can be large or run the other way; tested in A549 cells; also: nearly all actives have a fitted effect of over 30% in size; inactives centre near -10
* = called active by the depositor; i = inactive; ? = inconclusive; / = not tested or not shown; & = joins results of further samples; [ ] = another dose, or the depositor's remark. % is scaled to controls: 0 for no effect and ±100 for the full control effect; potency is read from the fitted curve at half-maximal effect.

molecule	VACV Venus inh	Vaccinia mCherry
Cc1cc(C)c(C#N)c(SCC(=O)Nc2nnc(-c3ccccc3)s2)n1	-8%	i
COC(=O)c1c(NC(=O)C2c3ccccc3Oc3ccccc32)sc2c1CCC(C(C)(C)C)C2 (stereo not drawn)	-3%	-7%
COc1cccc(NC(=O)C2CCCN2S(=O)(=O)c2ccc3c(c2)C(C)(C)C(=O)N3C)c1 (stereo not drawn)	-7%&-4%	-5%
Cc1c(C(=O)NCc2ccc(Cl)c(Cl)c2)sc(=O)n1Cc1ccc(C(=O)N(C)C)cc1	-13%	12%
CCCCn1c(N)c(N(CCOC)C(=O)CSCc2ccccc2C)c(=O)[nH]c1=O	-13%	i
COc1ccc2ccccc2c1/C=N\NC(=O)c1ccc(C)s1	-19%	-2%
O=C(C1CCC(=O)N1Cc1ccccc1Cl)N1CCN(c2ccc(F)cc2)CC1 (stereo not drawn)	-21%	/
O=C(c1cnccn1)N(Cc1ccco1)C1(C(=O)NC2CCCC2)CCCCC1	-20%	i
COc1ccc(-c2ccc3c(c2)c(Sc2ccccc2)c(-c2cc(OC)cc(OC)c2)n3C)cc1	11%	-11%
C=CCc1cc(Cl)ccc1OCCNCCOC	-6%	-11%
O=C(Nc1cccc(Cl)c1)c1cnc[nH]1	-4%	-1%
CCOC(=O)CSc1nc2sc(C)c(C)c2c(=O)n1N	-10%	i

Remaining list, next part
molecule	VACV Venus inh	Vaccinia mCherry
O=C(Nc1ccc(Cl)cc1)N1CCc2[nH]c3ccccc3c2C1	?	?
CN(C)S(=O)(=O)c1cccc(COC(=O)c2ccc(Cl)cc2O)c1	0%	-6%
O=C(COC(=O)CSc1ccc(F)cc1)NC1CC1	-9%	-8%
c1ccc(CN(Cc2cccs2)C(c2cccs2)c2nnnn2C2CCCC2)cc1 (stereo not drawn)	-25%	-20%
Nc1nonc1OCCCCOc1nonc1N	-1%	-5%
N#Cc1ccc(S(=O)(=O)N2CCCCC2c2cc(C(=O)Nc3cccc4c3CCCC4)no2)cc1 (stereo not drawn)	-16%	i
Cc1ccc(Cn2ccc(=O)c(Cc3c(Cl)cccc3Cl)c2C)cc1	-30%	/
O=C(COc1cccc(F)c1)Nc1nc(-c2ccccn2)cs1	?	11µM*
CCC(C)NC(=O)CSCc1nc(-c2ccc(C)cc2)oc1C (stereo not drawn)	-19%	-21%
CCN(CC)CCN1CCN(c2cnc(C)cn2)CC1	-5%	i
CC(C)(C)OC(=O)N1CC(O)CC1C(=O)OCC(=O)c1ccccc1 (stereo not drawn)	-13%	-10%
CC(C)N(CC#CCC1(O)c2ccccc2-c2ccccc21)C(C)C	-26%	-19%

Additional structures follow:
molecule	VACV Venus inh	Vaccinia mCherry
CCOC(=O)c1c(NC(=O)COC(=O)CCCOc2ccc(OC)cc2)sc(C(=O)N(C)C)c1C	-16%	-14%
O=C(C1=C(O)/C(=C/c2ccc(O)cc2)CCC1)C(F)(F)F	-11%	/
CC(C)COC(=O)N1C[C@H](O)C[C@H]1C(=O)Nc1ccc(Cl)cc1	-3%	-8%
CCCCCNC(=O)C(c1ccncc1)n1c(=O)c(-c2ccccc2)nc2ccccc21 (stereo not drawn)	-12%	-7%
C[n+]1ccccc1N1CCN(c2ccccc2Cl)CC1	-20%	-22%
C/C(=N\Nc1ccc(Cl)c(C(=O)O)c1)c1cccc2ccccc12	-1%	-15%
C[N+](C)(C)CCN(Cc1ccc(Cl)cc1)c1ccccn1	-23%	-23%
Cc1ccc(CNC(=O)C(=O)NCC(c2ccco2)N2CCOCC2)cc1 (stereo not drawn)	-19%	-14%
Nc1ccn(C2OC(COC(=O)C34CC5CC(CC(C5)C3)C4)C(O)C2O)c(=O)n1 (stereo not drawn)	?	0.32µM*
O=C(O)CCCNC(=O)/C(=C\c1ccc(Cl)cc1)NC(=O)c1ccc(Br)cc1	-5%	i
CCNC(=O)c1c(C)oc2ncn(C)c(=O)c12	-20%	-10%
CCC(=O)n1nc(-c2ccccc2)nc1N	-10%	/

Other records follow:
molecule	VACV Venus inh	Vaccinia mCherry
C#CCOCCOCCOCCNc1nc(N2CCN(C(=O)CCCCCCCCCCNC(=O)[C@@H](CCC(=O)O)n3cc(CCCCCN)nn3)CC2)nc(N2CCN(C(=O)CCCCCCCCCCNC(=O)[C@H](CO)n3cc(CCCSC)nn3)CC2)n1	-21%	i
Cc1ccc(C(=O)CCC(=O)OCC(=O)N(CC(C)C)c2c(N)n(Cc3ccccc3)c(=O)[nH]c2=O)cc1	-27%	-7%
COc1ccc(CN2C(=O)CCCC2(C)c2nc3ccccc3[nH]2)cc1 (stereo not drawn)	-2%	i
CCCCC/C(=N\NC(=O)CCC(=O)NCc1ccccc1)c1ccccc1	-30%	-17%
O=C(Cc1ccccc1)N1CCN(CCCc2ccccc2)CC1	-11%	-1%
Cc1c(C)n(Cc2ccccc2)c2ccc(C(=O)NCC(C)c3ccccc3)cc12 (stereo not drawn)	-14%	-8%
O=[N+]([O-])c1ccc(/C=N/NC(=S)Nc2ccccc2)o1	0%	-12%
N#Cc1c[nH]n2c(=O)c3c(nc12)CCC3	-18%	i
CCOC(=O)c1sc2nc(C)nc(N3CCN(S(=O)(=O)c4ccccc4)CC3)c2c1C	-11%	-22%
CCOC(=O)c1c(-c2ccccc2)csc1NC(=O)CSc1nnc(C)s1	-29%	-17%
O=C(O)CCC(=O)NNC(=O)c1ccc([N+](=O)[O-])cc1	1%	-11%
CC(=O)c1c(C)[nH]c(C(=O)COC(=O)c2cc(S(=O)(=O)N(C)c3ccccc3)ccc2Cl)c1C	-10%	-3%

Compound profiles, as listed above:
`Cc1ccc(C(=O)CCC(=O)OCC(=O)N(CC(C)C)c2c(N)n(Cc3ccccc3)c(=O)[nH]c2=O)cc1` is listed as VACV Venus inh: -27%; Vaccinia mCherry: -7%
`CC(=O)c1c(C)[nH]c(C(=O)COC(=O)c2cc(S(=O)(=O)N(C)c3ccccc3)ccc2Cl)c1C` is listed as VACV Venus inh: -10%; Vaccinia mCherry: -3%

The list goes on.
molecule	VACV Venus inh	Vaccinia mCherry
CCOc1cc(N2CCOCC2)c(OCC)cc1NS(=O)(=O)c1ccc2c(c1)CC(=O)N2	-10%	-2%
CCN(CC)S(=O)(=O)c1ccc(Nc2ccc(-c3ccc4c(c3)OCCO4)nn2)cc1	-12%	-19%
CC(C)(C)c1cc(C(=O)NNc2ccc(OC(F)(F)F)cc2)n(Cc2ccccc2)n1	-13%	-17%
O=C(O)Cc1ccc(C(=O)c2ccc(Cl)cc2)s1	-3%	-2%
O=C(COC(=O)c1ccc(F)c(S(=O)(=O)N2CCOCC2)c1)Nc1ccc(Cl)cn1	-5%	i
O=[N+]([O-])c1cc(/C=N/NC(=S)Nc2ccccc2Cl)ccc1Cl	?	?
O=C(CSc1nnc2ccccn12)NCCN1C(=O)CSC1=O	-13%	-7%[1.46 µM]
Cc1c(C)n(C(=O)CN2CCC(C(N)=O)CC2)c2ccccc12	-12%	/
COc1cccc(N2CCN(c3ccc4nnc(CCC(=O)Nc5ccc(F)cc5)n4n3)CC2)c1	-1%	-20%
CC1CCN(CC(=O)c2cccs2)CC1	-10%	i
CSc1cccc(NC(=O)c2[nH]c(C)c(C(C)=O)c2C)c1	-19%	i
CCOc1ccc(OCc2ccc(C(=O)NCc3ccncc3)o2)cc1	-17%	i

Arranged by formula weight (ascending): part of the list above
molecule	VACV Venus inh	Vaccinia mCherry
O=C(O)Cc1ccc(C(=O)c2ccc(Cl)cc2)s1	-3%	-2%
CSc1cccc(NC(=O)c2[nH]c(C)c(C(C)=O)c2C)c1	-19%	i
CCOc1ccc(OCc2ccc(C(=O)NCc3ccncc3)o2)cc1	-17%	i
CC(C)(C)c1cc(C(=O)NNc2ccc(OC(F)(F)F)cc2)n(Cc2ccccc2)n1	-13%	-17%
CCN(CC)S(=O)(=O)c1ccc(Nc2ccc(-c3ccc4c(c3)OCCO4)nn2)cc1	-12%	-19%
COc1cccc(N2CCN(c3ccc4nnc(CCC(=O)Nc5ccc(F)cc5)n4n3)CC2)c1	-1%	-20%

(continued)
molecule	VACV Venus inh	Vaccinia mCherry
COc1ccc(CNC(=O)Cn2ccc3cc(S(=O)(=O)N4CCCCCC4)ccc32)c(OC)c1	-24%	-27%
CC1=C(C(=O)OCc2ccccc2)C(c2ccc([N+](=O)[O-])cc2)NC(=O)N1CCCC(=O)O (stereo not drawn)	-12%	-14%
CN(C)S(=O)(=O)c1ccc(C(=O)Nc2nnc(SCc3cccc4ccccc34)s2)cc1	-6%	-8%
Cc1ccc(CNC(=O)CSc2nc3c(sc4ccccc43)c(=O)n2CCCOC(C)C)cc1	7%	1%
COc1cc(C#N)c(NC(=O)CN2CCN(CCO)CC2)cc1OC	0%	-8%
O=C(NCCS(=O)(=O)NCc1ccc2c(c1)OCO2)c1ccccc1	-2%	-12%
O=C(CC1CCC1)NC(c1ccccc1)c1ccccc1	-9%	-5%
COc1ccc(/C=N/NC(=O)C(C)Sc2ccccn2)cc1[N+](=O)[O-] (stereo not drawn)	-9%	-9%
CN(C)c1ccc(CN(CC2CCCO2)C(=O)COc2ccccc2Cl)cc1 (stereo not drawn)	-14%	-9%
O=S(=O)(c1ccc(-c2cnc(C3CC3)o2)cc1)N1CCN(c2ccc(F)cc2)CC1	-20%	?
CCOC(=O)c1c(-c2ccc(C)cc2)csc1NC(=O)CCN1CC(C)OC(C)C1 (stereo not drawn)	-26%	-21%
COc1ccccc1C(=O)NCc1nc2cccnc2n1Cc1ccc(F)cc1	-5%	-5%

(listing goes on)
molecule	VACV Venus inh	Vaccinia mCherry
O=C1c2ccccc2NC(c2ccc3c(c2)OCCO3)N1c1ccc2c(c1)OCCO2 (stereo not drawn)	-11%	/
Oc1ccc(Nc2ccc3ccccc3c2)cc1	6%	-3%
O=C(O)c1cccc(-c2ccc(/C=N/NC(=O)C3COc4ccccc4O3)o2)c1 (stereo not drawn)	2%	-11%
CN(C)C(=O)CCc1ccc2c3c([nH]c2c1)[C@]1(CCC2CCCC2)[C@@H](C(=O)N2CCOCC2)C[C@H](CC(=O)NCC24CC5CC(CC(C5)C2)C4)C(=O)N1CC3	?	?
Cc1nc2ccccc2c(=O)n1-c1ccc(NS(=O)(=O)c2ccc(F)cc2)cc1	-3%	i
CC(c1nc2ccccc2[nH]1)n1c(-c2ccncc2)nc2ccccc21 (stereo not drawn)	-1%	10%
CCO[C@@H]1OC(C(=O)NCc2nc3ccccc3[nH]2)=C[C@H](C2CCCCC2)[C@H]1CCCO	-13%	-13%
COc1ccc(CC(=O)Nc2cccc(C(=O)NN3C(=O)c4ccccc4C3=O)c2C)cc1	0%	i
COc1cccc(NC(=O)C(C)n2c(=O)cc(C(F)(F)F)c3c(C)nn(C)c32)c1 (stereo not drawn)	3%	-15%
Cc1ccc(-n2c(O)c(C=NC3CCCC3)c(=O)[nH]c2=O)c(C)c1	?	/
CC(C)NCC(O)COCc1ccc(Cl)cc1 (stereo not drawn)	-3%	-10%
Cc1ccc(C)c(NCc2n[nH]c(=S)n2-c2ccccc2)c1	-10%	-19%

Quoted at random: two compounds from above.
molecule	VACV Venus inh	Vaccinia mCherry
Cc1ccc(Cn2ccc(=O)c(Cc3c(Cl)cccc3Cl)c2C)cc1	-30%	/
COc1cccc(N2CCN(c3ccc4nnc(CCC(=O)Nc5ccc(F)cc5)n4n3)CC2)c1	-1%	-20%

Next part:
molecule	VACV Venus inh	Vaccinia mCherry
Cc1cc(C)nc(N2CCN(CC(=O)NCc3ccccc3)CC2)n1	-7%	-20%
COC(=O)Cc1[nH]n(-c2nc3ccccc3s2)c(=O)c1C(C)=Nc1ccc(C)cc1	-16%	-11%
COc1ccc(Nc2c3c(nc4ccc(NC(=O)c5cc(Cl)ccc5OC)cc24)CCCC3)cc1OC	?	?
FC(F)Sc1nc(-c2ccccc2)c(-c2ccccc2)n1C(F)F	7%	-2%
CCCCc1ccc(NC(=O)CSc2nc(=O)n(CCN(CC)CC)c3c2CCCC3)cc1	?	?
OCCN1CCN(CC(O)COCC2COc3ccccc3O2)CC1 (stereo not drawn)	-22%	i
CCc1cc(C(=O)NCC(C)(C)N2CCOCC2)sc1C	-13%	i
O=C(COc1ccc(Br)cc1)N1CCc2ccccc21	-14%	-12%
O=C(Cn1c(=O)oc2ccccc21)Nc1ccc(Br)cc1	-16%	-7%
Cc1ccc(C(O)(c2ccccc2)c2ccccc2C(C)N(C)C)c(C)c1 (stereo not drawn)	?	?
CCN1CCN(C(c2ccccc2F)c2nnnn2Cc2ccc3c(c2)OCO3)CC1 (stereo not drawn)	0%	-5%
CC(=C/c1ccccc1)/C=N/Nc1nc(N2CCOCC2)nc(N2CCOCC2)n1	-4%	-14%

(list continues)
molecule	VACV Venus inh	Vaccinia mCherry
Nn1c(SCC(=O)Nc2ccccc2)nnc1-c1cccnc1	-14%	/
CCCN1CCN(C(c2cc3cc4c(cc3[nH]c2=O)OCO4)c2nnnn2C(C)(C)C)CC1 (stereo not drawn)	-3%	i
CCOc1ccc2[nH]c(SCC(=O)OC)c([N+](=O)[O-])c2c1	4%	i
CCOC(=O)CNC(=O)Cn1cnc2c(nnn2-c2ccccc2)c1=O	7%	2%
O=C(CN1C2=NCCCN2c2ccccc21)c1cccc(Br)c1	-19%	?
CCCOc1ccc(CC(=O)N/N=C\c2ccc(F)cc2)cc1	-9%	-8%

High-throughput results from PubChem.
